# RecA intein inh – blocks M. tuberculosis RecA intein splicing; cell-free RecA intein splicing, fluorescence; inhibition, %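 (about 9 µM by stock and volumes)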; actives 0.75% (n = 290,000); in the data active means inhibition above about 30%; inconclusive means no clear call, values can overlap the other calls;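 further: 0% = vehicle wells and 100% = reference inhibitor control wells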
# Target sequence (P9WHJ3 whole entry, looked up): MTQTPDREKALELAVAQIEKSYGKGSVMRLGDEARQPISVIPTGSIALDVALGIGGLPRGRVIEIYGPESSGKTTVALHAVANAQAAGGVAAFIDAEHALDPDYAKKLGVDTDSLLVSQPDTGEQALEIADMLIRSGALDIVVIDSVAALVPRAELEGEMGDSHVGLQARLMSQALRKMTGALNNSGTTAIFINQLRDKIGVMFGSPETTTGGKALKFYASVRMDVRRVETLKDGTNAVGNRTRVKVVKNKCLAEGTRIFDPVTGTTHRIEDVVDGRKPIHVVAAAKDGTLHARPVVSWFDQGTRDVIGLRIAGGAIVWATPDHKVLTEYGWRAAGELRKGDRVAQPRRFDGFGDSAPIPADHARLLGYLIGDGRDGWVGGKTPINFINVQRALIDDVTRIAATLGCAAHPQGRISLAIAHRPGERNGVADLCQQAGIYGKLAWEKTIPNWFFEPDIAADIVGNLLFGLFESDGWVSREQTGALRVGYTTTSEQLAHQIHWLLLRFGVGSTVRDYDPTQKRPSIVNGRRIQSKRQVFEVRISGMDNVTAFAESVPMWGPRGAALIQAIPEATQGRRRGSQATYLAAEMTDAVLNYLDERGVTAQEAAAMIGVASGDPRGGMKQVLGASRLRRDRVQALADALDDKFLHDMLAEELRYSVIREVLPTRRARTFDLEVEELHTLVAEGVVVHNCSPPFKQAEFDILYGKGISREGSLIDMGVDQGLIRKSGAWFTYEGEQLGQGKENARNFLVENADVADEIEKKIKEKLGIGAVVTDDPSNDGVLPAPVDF
# Mtb betalactam – beta-lactam sensitization of Mtb H37Rv; inhibition, % at 25 µM; actives 0.27% (n = 330,000); M. tuberculosis H37Rv growth with meropenem, percent inhibition; hits of this screen are not shown here; AID 434955;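 active means about 74% or more and at least 40 points above the plate without the antibiotic, then above 30% in a dose series; inconclusive means first-round hits that could not be retested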;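 further: growth measured after seven days incubation then overnight dye step; 0% = bacteria only wells and 100% = bacteria with antibiotic; twin plates without the antibiotic show which effects depend on it; some results filed as inactive read as strong as hits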
# Mtb H37Rv – M. tuberculosis H37Rv growth inhibitors, H37Rv strain (AID 1626). one-dose inhibition, % at 10 µM; IC50 in µM for titrated hits. actives 0.95% (n = 220,000). M. tuberculosis H37Rv growth inhibition; higher % means a stronger effect;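 active means confirmed in a dose series; inconclusive means inhibition above 80% but not taken into the dose series; inactive means below 80% or under 30% at every dose of the series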;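 further: bacteria incubated seven days before Alamar blue readout; 0% = bacteria only wells and 100% = bacteria with antibiotic wells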
# YopH inh – YopH (Yersinia) phosphatase inhibition | fluorescence Ex485/Em525 | inhibition, %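 (about 10 µM by stock and volumes)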 | actives 0.16% (n = 140,000);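 active means inhibition of 50% or more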;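 further: controls were vehicle for no effect and minimum signal wells for full effect; inactives centre near -20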
# Arbovirus anti – arbovirus infection inhibition; arbovirus infection cell-based antiviral screen; inhibition, % at 10 µM; actives 0.37% (n = 200,000); AID 1251;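 active means inhibition from about 30%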;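 further: bluetongue infection of BSR cells; cell survival read as ATP light after 72 h; 0% = infected wells without compound and 100% = uninfected wells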
# Arbovirus anti repeat – second read-out of Arbovirus anti, no call of its own (marks repeat the call); inhibition, %; measured here: 10K subset replicate screen; many hits read low in the repeat;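 first of two repeat runs on a subset; 0% = infected and 100% = uninfected wells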
# * marks the source's active call; other numbers are inactive results; ? = inconclusive; . = no result given.
SMILES,RecA intein inh,Mtb betalactam,Mtb H37Rv,YopH inh,Arbovirus anti,others
C/C=C(/C)C(=O)Nc1cccc(C2=NOC3(C2)C[C@H](C(N)=O)N(C(=O)Cc2ccc([N+](=O)[O-])cc2)C3)c1 (stereo not given in full),3.0,2,1%,.,.,
Cn1ncc(Br)c1C(=O)N1CCN(C(=O)c2ccco2)CC1,-1.8,-13,-3%,-12,-3,
Cc1ccc(OCC(=O)Nc2ccc3c(c2)CCC3)c([N+](=O)[O-])n1,3.6,11,4%,.,22,
O=C(O)CSCC(=O)N(c1ccccc1)c1ccccc1,-0.6,1,.,.,.,
COc1ccc(-c2nn(CCC#N)cc2C(=O)Nc2ccccc2Cl)cc1,3.7,-10,.,.,.,
COc1cccc(CN2CC(C(=O)NC3CCC(O)CC3)CCC2=O)c1 (stereo not given),-0.3,?,.,.,.,
Cc1nnc2ccc(N3CCN(C)CC3)nn12,7.3,.,-5%,1,2,
CC(=O)c1cccc(NC(=O)N2CCCC2C(=O)NCc2ccc(C)cc2)c1 (stereo not given),-1.0,4,1%,23,-6,
CN1CCC(N(C)CC(O)c2ccccc2)CC1 (stereo not given),-1.3,-2,-1%,.,3,
Cc1ccc(-c2nnc(SCC(=O)Nc3ccc4c(c3)OCCO4)n2N)cc1,.,-11,5%,-39,19,
C/C(CC(=O)NC1CCCCC1)=N\NC(=O)COc1ccc(C)cc1Br,-0.3,3,-2%,.,1,
Cc1cccc(C(=O)NC2CCN(S(=O)(=O)c3ccc(F)cc3)CC2)c1,1.0,-21,.,.,.,
COc1ccccc1N1CCN(C(=O)c2ccco2)CC1,1.4,-1,.,.,.,
COc1ccc(C2N(c3ccc4c(c3)OCCO4)C(=O)C2(F)F)cc1OC (stereo not given),-1.1,99,?,.,.,
O=C(CSc1ccc2nnc(-c3ccccc3)n2n1)N1CCCc2ccccc21,0.0,-2,-4%,-11,-8,
CN1CCN(C(=O)c2cnn3c2NC(c2ccccc2)CC3C(F)(F)F)CC1 (stereo not given),-5.7,-16,-8%,.,3,
CCSc1nc2ccccc2n1CC(N)=O,1.8,-12,-1%,-20,-1,
Cc1occc1C(=O)NCc1ccccc1,-0.9,-8,7%,-10,4,
CC(/C=N/n1c(-c2ccco2)n[nH]c1=S)=C\c1ccco1,2.0,-3,-4%,-14,-6,
Cc1cccc(C(c2c(C)nn(-c3ccccc3)c2N)c2c(C)nn(-c3ccccc3)c2N)c1,11,5,10%,-23,8,
Cc1cc(C)nc(NC(C)(C)C(=O)O)n1,-2.1,-3,-9%,.,1,
CN(C)c1cccc(C(=O)NNC(=O)CSc2ccccc2)c1,-2.8,-1,.,.,.,
Cc1nnc(SCC(=O)N2CCOCC2)c2ccccc12,1.6,1,-8%,-47,3,
O=C(CC(C(=O)O)c1ccccc1)Nc1cccc2ccccc12 (stereo not given),2.1,-8,-2%,-15,2,
CCCCOc1ccc(/C=C/C(=O)N(CC)CC(=O)Nc2ccc3c(c2)OCCO3)cc1OC,-2.0,19,.,.,.,
O=C1CCCC2=C1C(c1cccs1)n1nc(SCc3ccccc3)nc1N2 (stereo not given),2.5,12,-2%,-31,-4,
O=C(Nc1ccccc1C(=O)NCC1CCCO1)c1ccccc1F (stereo not given),2.8,-4,.,.,.,
Cc1nnc2sc(SCC(=O)Nc3nccs3)nn2c1=O,2.7,6,-2%,-3,9,
Cc1cc(OCCCN2CCN(Cc3ccccc3)CC2)ccc1[N+](=O)[O-],2.5,-13,6%,.,-22,
CC(=O)c1ccc(S(=O)(=O)NCCc2cn3ccc(C)cc3n2)cc1,0.3,-1,.,.,.,
CC(=O)CSc1ccc(-c2nc3cc(C)c(C)cc3[nH]2)cn1,-3.9,2,12%,.,-28,
Fc1ccc(COc2ccccc2-c2ccnc3ncnn23)cc1,-0.8,5,0%,.,6,
COc1cc(C2CC(=O)Nc3ccccc3S2)cc(OC)c1OC (stereo not given),-0.9,6,-6%,-37,-11,
CC(C)Cn1c(CCCNC(=O)c2ccco2)nc2ccccc21,4.3,0,.,.,.,
O=C(CC(c1ccccc1)c1ccccc1)NCCO,2.0,-9,-6%,-14,4,Arbovirus anti repeat=1
C=CCOc1ccccc1/C=N/n1nnnc1N,-1.9,0,.,.,.,
O=C(Nc1ccc(-c2noc(COc3ccccc3Cl)n2)cc1)c1ccco1,2.2,-2,1%,8,-12,
C/C(CC(=O)Nc1cc(Cl)ccc1Cl)=N\NC(=O)c1ccccc1Br,-0.2,39,-7%,.,5,
COc1ccc(C(=O)Nc2c3c(nn2-c2ccc([N+](=O)[O-])cc2)CS(=O)(=O)C3)cc1,-0.4,1,.,.,.,
O=C(CSc1ccc2c(c1)OCCO2)Nc1cccc(S(=O)(=O)N2CCCCC2)c1,1.3,-1,.,-5,2,
CC[n+]1c(/C=C/N(C)c2ccccc2)n(-c2ccccc2)c2ccc(-c3nc4ccccc4s3)cc21,0.8,100,.,.,.,
O=C(NC(=S)Nc1ccccc1N1CCOCC1)c1ccccc1F,4.5,-2,.,.,.,
CC(C)c1ccccc1N=C1SCCN1C1CCS(=O)(=O)C1 (stereo not given),-2.0,-15,-6%,-48,8,
Nc1nc(SCC(=O)Nc2cccc(S(=O)(=O)N3CCCCCC3)c2)n[nH]1,0.4,-6,3%,.,-2,
CCOc1ccc2c(c1)C(NC(C)=O)C(=O)N2CCN1CCOCC1 (stereo not given),43*,-4,.,.,.,
O=[N+]([O-])c1cc(S(=O)(=O)Nc2ccccc2)ccc1NCc1ccccc1,2.6,-2,6%,-21,8,
Cc1c(C(=O)Nc2cnccn2)oc2ccccc12,1.1,?,0%,-9,-20,
COc1ccc(N2C(=O)CC(N3CCN(c4ccccc4)CC3)C2=O)cc1 (stereo not given),-0.7,-5,.,.,.,
O=C(COC(=O)c1cncc(Br)c1)NCc1ccccc1,-2.3,-2,-7%,.,-2,
Cc1cc(C)n(C(C)CC(=O)Nc2ccc3c(c2)OCO3)n1 (stereo not given),4.6,10,.,.,.,
Cc1cc(C)cc(SCc2noc(C(=O)NCC3CCCO3)c2C(=O)O)c1 (stereo not given),-2.2,24,-21%,-8,7,
COc1ccc(CCNCC(O)COc2c(C)cccc2C)cc1OC (stereo not given),-0.6,6,.,.,.,
O=C(NCCc1ccccc1Cl)C1CC(=O)N(C2CCCCC2)C1 (stereo not given),2.5,-5,.,.,.,
COc1ccc(C2C(C(=O)c3cccs3)=C(O)C(=O)N2c2nnc(C)s2)cc1OC (stereo not given),-0.5,-3,-6%,-22,1,Arbovirus anti repeat=7
COc1cc(NC(=O)Nc2ccc3c(c2)OCO3)cc(OC)c1OC,1.4,4,4%,.,-5,
Cc1cc(NC(=O)COC(=O)c2c(C)nn(Cc3ccccc3Cl)c2Cl)no1,-1.7,-10,-5%,-36,0,
Cc1cc(NC(=O)c2cc3ccccc3o2)ccc1NC(=O)c1ccccc1,-0.1,23,.,.,.,
Cc1ccsc1C(=O)N1CCCC(C(=O)c2cc(F)ccc2F)C1 (stereo not given),2.9,-1,7%,.,1,
CCN(C1CCS(=O)(=O)C1)S(=O)(=O)c1ccc2ccccc2c1 (stereo not given),2.9,-7,.,.,.,
COc1ccccc1C(=O)NCCc1nc2ccccc2[nH]1,0.2,65,-14%,-27,6,

# An excerpt from above in order of count of non-hydrogen atoms, smallest number first:
SMILES,RecA intein inh,Mtb betalactam,Mtb H37Rv,YopH inh,Arbovirus anti,others
COc1cc(NC(=O)Nc2ccc3c(c2)OCO3)cc(OC)c1OC,1.4,4,4%,.,-5,
O=[N+]([O-])c1cc(S(=O)(=O)Nc2ccccc2)ccc1NCc1ccccc1,2.6,-2,6%,-21,8,
COc1ccc(C2C(C(=O)c3cccs3)=C(O)C(=O)N2c2nnc(C)s2)cc1OC (stereo not given),-0.5,-3,-6%,-22,1,Arbovirus anti repeat=7

# (more compounds)
SMILES,RecA intein inh,Mtb betalactam,Mtb H37Rv,YopH inh,Arbovirus anti,others
CCn1c(CC(=O)Nc2ccc(F)cc2)nnc1SCC(=O)Nc1nnc(C)s1,-3.2,-1,.,.,.,
CN(C(=O)CS(=O)(=O)Cc1ccccc1Cl)c1ccccc1,-2.6,-4,1%,.,0,
Cc1ccc(C(=O)N2CCC(Cc3ccccc3)CC2)cc1[N+](=O)[O-],8.7,2,11%,.,4,
CCOc1ccc2[nH]cc(C(=O)NCc3ccc(F)cc3)c(=O)c2c1,0.7,-1,.,.,.,
Cc1nnc(SCC(=O)NC2CCS(=O)(=O)C2)n1Cc1ccccc1 (stereo not given),1.6,-4,-6%,.,0,
Cc1ccccc1NC(=O)CSc1nc(COc2ccccc2)nc2ccccc12,.,1,1%,24,-3,
COC(=O)C(NC(C)=O)(Nc1nc2ccc(C)cc2s1)C(F)(F)F (stereo not given),-1.9,-8,-1%,3,-2,
CCOc1ccc(S(=O)(=O)N2CCN(c3ccc(OC)cc3)CC2)c2cccnc12,0.1,71,-6%,-30,7,
CCN1C(=O)[C@@H]2[C@H](C1=O)[C@@H]1C[C@H]3C(=O)N(CC)C(=O)[C@H]3[C@@H]3C1=C(C(=O)N1C(=O)OC(=NCC4CC4)[C@]31C)[C@@H]2C,3.9,-9,2%,.,.,
Cn1ncc(Cl)c1C(=O)N1CCN(c2cccc(Cl)c2)CC1,0.9,-5,.,.,.,
CCC(C)(C)C1CCC(NC(=O)N2CCN(c3ccccc3O)CC2)CC1 (stereo not given),-0.6,4,.,.,.,
O=C(NCc1ccco1)Oc1ccccc1,0.0,6,-6%,-27,14,
CCn1c(C)[n+](CCOC(C)=O)c2cc(Cl)c(Cl)cc21,-8.3,1,2%,.,0,
COc1cccc(/C=N/Nc2nc(-c3cccnc3)nc3ccccc23)c1,-3.5,-6,-4%,.,.,
Cc1ccccc1NCC(=O)N/N=C\c1ccc([N+](=O)[O-])s1,-0.2,100,?,.,-22,
COc1cccc(C(=O)/C=C/Nc2cc(C)ccc2O)c1,-2.8,3,-8%,-32,11,
CC1Cc2cc(/C(O)=C3/C(=O)C(=O)N(CC4CCCO4)C3c3ccco3)ccc2O1 (stereo not given),2.2,-13,7%,-24,10,
CC(=O)N1CCc2cc(S(=O)(=O)NCCC(=O)N3CCN(Cc4ccccc4)CC3)ccc21,.,4,-1%,-7,4,
Cc1cccc(NS(=O)(=O)c2cnc[nH]2)c1,1.5,-2,-3%,6,9,
COc1cccc(C(C#N)N2CCCCC2)c1O (stereo not given),-3.3,-7,-6%,30,1,
CC(C)(C)OC(=O)NCCCC1=CC2=CC(=O)C(C)(O)C(=O)C2=CO1 (stereo not given),2.3,0,-9%,.,.,
CCOC(=O)c1nnc(-c2ccccc2)o1,-2.2,-4,0%,7,1,
COc1ccc(OC)c(-c2csc(NC(=O)CSc3ccc([N+](=O)[O-])cc3)n2)c1,.,92,10%,-17,6,
CN(C)c1ccc(CNn2cnnc2SCC(=O)NC(C)(C)C)cc1,-1.4,2,-6%,.,2,
CC(=O)c1nc2ccccc2n1Cc1ccccc1,1.5,-3,.,.,.,
CCc1ccccc1-n1c(-c2ccncc2)n[nH]c1=S,0.7,?,-5%,-43,-1,
c1nnc(NC2=NCCC2)s1,0.6,-5,-7%,-18,8,
O=C(/C=C/c1ccc(F)cc1)NC(Cc1c[nH]c2ccccc12)C(=O)O (stereo not given),-3.6,-7,4%,.,3,
O=C(NCCN1CCCCC1)c1ccc(=O)oc1,-1.8,5,0%,-8,-5,
Cc1ccc(/C=C/C(O)=C2/C(=O)N(C)C3(C)CC2c2ccccc2O3)cc1 (stereo not given),-2.0,?,-8%,-14,-26,
O=C(N1CCOCC1)C12CCC3CC(CC(C3)C1)C2,1.3,-2,7%,-31,0,
CCOc1ccc(Cn2c3ccc(OC)cc3c3nc4ccccc4nc32)cc1,.,-4,0%,-26,-38,
COc1cc(NS(=O)(=O)c2ccc(NC(=O)C3CCCO3)cc2)nc(OC)n1 (stereo not given),-2.5,-4,5%,-67,4,
Cc1ccccc1-n1nnnc1SCC(C)C,-0.9,-14,7%,.,-2,
CCCn1c(=O)c(C(=O)Nc2ccccc2C(=O)OCC)c(O)c2ccccc21,-0.5,-10,1%,-30,-8,
O=C(Nc1nccs1)c1cc(-c2ccccc2)nc2ccccc12,11,94,19%,-14,12,
O=C(Nc1ccccc1N1CCOCC1)c1cc2c(s1)CCCCC2,0.5,17,-4%,.,7,

# Two entries drawn at random from those above, as already listed:
SMILES,RecA intein inh,Mtb betalactam,Mtb H37Rv,YopH inh,Arbovirus anti,others
O=C(NC(=S)Nc1ccccc1N1CCOCC1)c1ccccc1F,4.5,-2,.,.,.,
CC(=O)c1nc2ccccc2n1Cc1ccccc1,1.5,-3,.,.,.,

# Structural class, the compounds so far with a cyano group (2)
SMILES,RecA intein inh,Mtb betalactam,Mtb H37Rv,YopH inh,Arbovirus anti,others
COc1ccc(-c2nn(CCC#N)cc2C(=O)Nc2ccccc2Cl)cc1,3.7,-10,.,.,.,
COc1cccc(C(C#N)N2CCCCC2)c1O (stereo not given),-3.3,-7,-6%,30,1,

# Not all compounds are listed. The share of hits here may be higher or lower than overall.
